Bioassay records as filed in PubChem BioAssay.
CtBP-E1A inh: qHTS Assay for Inhibitors of the CtBP/E1A Interaction | AlphaScreen GST-E1A/His-CtBP binding, 1536-well; hits give low values; control for the full effect not named in the record | activity change, % (no concentration beside the values) | 340,000 tested, 0.49% active; in the data active means activity change below about -65%; inconclusive means about -30% to -65%; inactive means above about -30%; further: on the % scale 0 is the no-effect control and ±100 the full control effect; compound concentration not given in the record
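Protein mix (5X: 125 nM each GST-E1A, His-CtBP) was incubated with pinned compound 2 h at 37 deg C in dark, in 50 mM Tris pH 8.0 buffer with 300 mM NaCl. Glutathione donor and nickel acceptor beads followed; AlphaScreen signal read after 1 h.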
D2 PAM: Beta-Arrestin HTS for Positive Allosteric Modulators of the Human D2 Dopamine Receptor: Potentiators | D(2) dopamine receptor (Homo sapiens), P14416 | DiscoveRx D2 beta-arrestin cells, luminescence, 90 min; 100% = 57 uM dopamine signal | potentiation, % (test concentration not listed) | 360,000 tested, 0.23% active; active = potentiation of 50% or more; inconclusive = 30% to 50%; inactive = 30% or less;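 further: compound concentration not given in the record; tested on top of an EC20 dose of dopamine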
Target sequence (P14416 whole entry, looked up): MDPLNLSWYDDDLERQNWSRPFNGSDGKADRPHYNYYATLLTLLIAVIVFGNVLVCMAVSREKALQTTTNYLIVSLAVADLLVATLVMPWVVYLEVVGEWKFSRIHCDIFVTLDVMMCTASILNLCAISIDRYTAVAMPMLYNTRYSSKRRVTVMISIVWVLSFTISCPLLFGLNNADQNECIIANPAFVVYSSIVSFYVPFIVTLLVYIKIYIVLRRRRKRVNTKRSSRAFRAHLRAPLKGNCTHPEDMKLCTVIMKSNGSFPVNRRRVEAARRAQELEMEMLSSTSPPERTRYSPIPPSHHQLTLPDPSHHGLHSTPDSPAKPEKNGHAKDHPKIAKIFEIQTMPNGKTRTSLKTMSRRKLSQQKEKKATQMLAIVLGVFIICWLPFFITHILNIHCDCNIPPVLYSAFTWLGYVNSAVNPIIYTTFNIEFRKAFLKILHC
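PathHunter D2 cells, attached overnight at 37 deg C, received compound in DMSO plus dopamine at EC20 (50 nM final) for 90 min at 37 deg C. Beta-arrestin recruitment was read as luminescence after 1 h with detection reagent at ambient temperature.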
PINK1 expr mod: A Quantitative High throughput Screen to Identify Chemical Modulators of PINK1 Expression | PINK1 immunofluorescence, high-content cytometry, 24 h | Potency, µM (top dose mostly 76.6 µM), for inactives: at the top dose activation (PINK1 increase), actives largely listed as activators | 410,000 tested, 0.2% active; active = well fitted activation curve with a large enough effect; inconclusive = small, poorly fitted or top-dose-only effect; inactive = flat fitted curve, though single readings scatter; cell line not stated here;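 further: potency means the concentration at half of the fitted maximal effect; % of control where 0% means no effect; nearly all actives have a fitted effect of over 65% in size; a mitochondrial uncoupler was the plate control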
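PINK1 protein, normally rapidly degraded, was detected by immunofluorescence after 24 hour compound treatment of a stable cell line. Titration data (5 concentrations) came from laser-scanning cytometry, with CCCP-treated wells as controls.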
Six1-Eya2 inh: qHTS Assay for Inhibitors of the Six1/Eya2 Interaction; AlphaScreen GST-Six1/His-Eya2 binding, biochemical; hits give low values; control for the full effect not named in the record; activity change, % (no concentration beside the values); 360,000 tested, 0.56% active; AID 651725, 2012; in the data active = activity change below about -65%; inconclusive = about -30% to -65%; inactive = above about -30%; further: on the % scale 0 is the no-effect control and ±100 the full control effect; compound concentration not given in the record
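GST-Six1 + His-Eya2 (5X stock: 250/500 nM); Tris pH 8.0, 300 mM NaCl, 0.05% BSA, 0.02% Tween 20; GSH donor/Ni acceptor beads; 1 h 37 °C dark; AlphaScreen readout.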
D2 agonist: Beta-Arrestin HTS for Positive Allosteric Modulators of the Human D2 Dopamine Receptor: Agonists | D(2) dopamine receptor (Homo sapiens), P14416 | DiscoveRx PathHunter D2 beta-arrestin, luminescence, 90 min; 100% = 57 uM dopamine signal | activation, % (test concentration not listed) | 360,000 tested, 0.084% active; in the data active = activation above about 40%; inconclusive = about 15% to 40%; inactive = below about 15%; further: compound concentration not given in the record; the text of the record calls up to 30% inactive
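Agonist mode: compounds alone added to overnight-plated D2 PathHunter cells for 90 min at 37 C, with 57 uM final dopamine (EC100) defining full response. Beta-arrestin recruitment detected by chemiluminescent reagent, read after 1 h at ambient temperature.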
Sfp inh: qHTS Assay for Inhibitors of Bacillus subtilis Sfp phosphopantetheinyl transferase (PPTase); Biochemical Sfp PPTase activity, qHTS; AID 1490, 2009; Potency, µM, inactives show max response, negative = inhibition, most hits filed as inhibitors; 310,000 tested, 3.5% active; 4'-phosphopantetheinyl transferase ffp (Bacillus subtilis), Q9F4F7; active means well fitted inhibition curve with a large enough effect; inconclusive means small, poorly fitted or top-dose-only effect, or another doubt; inactive means no such curve, though single readings can be large or run the other way;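 further: the enzyme is Sfp with the accession as filed and its product quenches rhodamine fluorescence; potency means the concentration at half of the fitted maximal effect; 0% = enzyme reaction without inhibitor and -100% = no enzyme wells; top concentration of the series not given in the record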
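Fluorescence-quenching assay with 15 nM Sfp, 5 uM rhodamine-CoA and 12.5 uM BHQ-2-labelled ybbR peptide in pH 7.6 Hepes/MgCl2 buffer. Enzyme was pre-incubated with compound for 15 min at room temperature. Rate was taken from the 30-min fluorescence change (525/598 nm).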
TRPV1 potentiator: HTS Assay for Compounds that Act as Potentiators of the Vanilloid Receptor 1. TRPV1-expressing cells, Fluo-8 calcium influx, capsaicin EC20 potentiation; host cell line not named in the record; control for the full effect not named in the record. Transient receptor potential cation channel subfamily V member 1 (Homo sapiens), Q8NER1. potentiation, % at 8.33 µM. 320,000 tested, 0.02% active; active means potentiation above 80%; inconclusive means 30% to 80%; inactive means below 30%; further: 0% is about no effect
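Cells expressing TRPV1 were dye-loaded with Fluo-8 and read kinetically: 10 s baseline, 3 min after compound (agonist portion), then 2 min after EC20 capsaicin (allosteric enhancer portion). Calcium-bound dye fluorescence at 480/520 nm.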
* = called active by the depositor; ? = inconclusive; · = not tested or not shown; & = joins results of further samples; [ ] = dose if it differs, or a comment.

Order of results – D2 PAM	D2 agonist	Sfp inh	TRPV1 potentiator	Six1-Eya2 inh	CtBP-E1A inh	PINK1 expr mod
O=C(NCC(c1ccco1)N1CCCCC1)c1ccc(COc2ccccc2)cc1 (stereo not given)
 : 0	-2.9	·	0	4	-7	1.8%
CCOCCCn1c(=S)[nH]c2cc(C(=O)NCCc3ccccc3)ccc2c1=O
 : -6	0.1	16%	-5	1	3	1.6%
CCNC(=S)N1CCN(c2nc(CC)nc3sc4c(c23)CCCC4)CC1
 : -19	1.2	9%	5	-16	-4	0.6%
COc1ccc(N2C(=O)C3CCCN3C2c2cccs2)cc1 (stereo not given)
 : -4	-0.3	-4%	7	7	2	0.8%
CCOC(=O)CN(C(=O)CSc1nnc(COc2ccc(OC)cc2)n1C)c1ccccc1
 : -8	-2.3	17%	3	1	4	-1.0%
CN(CC(=O)Nc1ccccc1Cl)C(=O)CCNC(=O)Nc1ccccc1
 : -5	3.8	·	·	5	1	-1.8%
COc1ccc(CC(O)COS(N)(=O)=O)cc1 (stereo not given)
 : -35	0.9	14%	-1	4	-20	-0.2%
COc1ccc(Cc2nc3ccc(C(=O)N(C)CCO)cc3o2)cc1
 : 0	-0.6	11%	-3	0	10	0.6%
CN(CC(=O)Nc1ccc(Cl)c(C(F)(F)F)c1)C(=O)c1cn2ccccc2n1
 : -8	-0.4	·	-21	-13	-2	1.3%
CCN1CCCC1Cn1cnc2c([nH]c3cc(OC)ccc32)c1=O (stereo not given)
 : -24	-1.7	7%	-4	0	-1	0.6%
O=C(O)CNS(=O)(=O)c1ccc2c3c(cccc13)C(=O)N2
 : -6	-2.5	-1%	?	-21	-6	0.0%
CC1CN=C(c2cccn2Cc2ccc(F)cc2Cl)O1 (stereo not given)
 : -20	-3.4	-11%	11	-5	-3	-0.6%
Cc1cccnc1NC(=O)c1ccc2nc(N)sc2c1
 : -4	-0.6	-16%	7	7	4	4.3%
Cc1nnc2c3ccccc3c(Cl)nn12
 : -11	-2.5	-6%	-15	-3	-5	1.9%
Cc1cc(NC(=O)Nc2cc(Cl)ccc2C)no1
 : ?	-5.6	-28%	2	3	·	3.8%
CC(C)n1c(CNC(=O)c2ccccc2F)nnc1SCC(=O)c1ccc(F)cc1
 : -4	-4.2	·	·	13	-9	-0.2%
COc1ccc(Cl)cc1S(=O)(=O)N1CCCc2ccccc21
 : 5	2.0	19%	17	11	2	0.8%
CCC1CCCCN1C(=S)NC(=O)c1cc(Br)ccc1Cl (stereo not given)
 : -5	-4.8	·	-15	6	-2	0.9%
Cc1nc2c(C(=O)N3CCOCC3)cnn2c(C)c1Cc1ccc(Cl)cc1
 : -1	-0.9	5%	7	1	3	?
COC(=O)c1c(NC(=O)c2cccnc2)sc(C)c1C
 : -2	-1.1	-1%	0	0	2	2.3%

An excerpt from above in order of heavy-atom count, highest first:
Order of results – D2 PAM	D2 agonist	Sfp inh	TRPV1 potentiator	Six1-Eya2 inh	CtBP-E1A inh	PINK1 expr mod
CN(CC(=O)Nc1ccc(Cl)c(C(F)(F)F)c1)C(=O)c1cn2ccccc2n1
 : -8	-0.4	·	-21	-13	-2	1.3%
CCNC(=S)N1CCN(c2nc(CC)nc3sc4c(c23)CCCC4)CC1
 : -19	1.2	9%	5	-16	-4	0.6%
COc1ccc(N2C(=O)C3CCCN3C2c2cccs2)cc1 (stereo not given)
 : -4	-0.3	-4%	7	7	2	0.8%

Continuation:
Order of results – D2 PAM	D2 agonist	Sfp inh	TRPV1 potentiator	Six1-Eya2 inh	CtBP-E1A inh	PINK1 expr mod
Cc1csc2nc(=O)c3ccccc3n12
 : -10	-1.1	13%	0	-26	?	-2.3%
CCN(CC(=O)Nc1ccc(NC(C)=O)cc1)C(=O)CCCc1c[nH]c2ccccc12
 : -4	-2.3	·	2	-19	-26	-0.1%
O=C(C1CCN(S(=O)(=O)c2ccc(-n3cnnn3)cc2)CC1)N1CCN(c2ccccc2)CC1
 : -5	-3.6	1%	-8	-2	-5	0.1%
O=C(c1cc(-c2ccccc2)nc2ccccc12)N1CCCC1
 : -3	-3.7	7%	3	-20	-13	-0.1%
COc1ccc(C(CC(=O)Nc2cc(OC)cc(OC)c2)n2cccc2)cc1 (stereo not given)
 : 2	-0.5	15%	-3	-24	-7	-0.5%
Cc1cc(C)n(-c2cccc(CN(C)Cc3nc(-c4cnccn4)no3)c2)n1
 : -10	-4.0	13%	16	1	-1	-1.0%
C=CCn1c(N2CCCC2)nc2c1c(=O)[nH]c(=O)n2C
 : -11	-2.8	19%	-2	5	8	·
CC1CC(C)CN(C(=O)CCn2c(=O)oc3ccccc32)C1 (stereo not given)
 : 4	-0.9	6%	0	3	1	2.4%
CCC(=O)N(CCc1ccccc1)Cc1cc2ccc(OC)cc2[nH]c1=O
 : -11	-1.1	-9%	14	-8	·	1.3%
COc1ccc(C(=O)NNC(=S)NC(=O)c2cc(-c3ccccc3)nc3ccccc23)cc1
 : -38	-8.2	11%	12	-2	-8	-2.0%
Cc1cccc(N/C(N)=N/c2nc(C(F)(F)F)cc(=O)[nH]2)c1C
 : -5	0.4	-8%	-2	6	9	3.8%
COc1ccccc1C(CNC(=O)c1cccc(S(=O)(=O)Nc2ccc(F)cc2)c1)N1CCCC1 (stereo not given)
 : -23	-1.0	·	·	0	11	3.2%
CCOC(=O)COc1cc(Br)c(/C=N/Nc2ccccc2)cc1OC
 : -14	-4.0	4%	-8	-3	-1	2.5%
COc1ccc(/C=C/C(=O)c2ccc(NC3=NCCCS3)cc2)cc1OC
 : -12	2.9	2%	2	0	0	-0.9%
CCCNc1nc2nc3ccccn3c(=O)c2cc1C(=O)NCCN1CCOCC1
 : -7	-0.1	9%	4	-17	-10	1.3%
Cc1c(CC(=O)O)c(=O)oc2c(C)c(OCc3ccc(F)cc3F)ccc12
 : -5	-2.2	16%	19	-7	·	0.2%
CC(C)Cc1ccc(CN2CCCC(NC(=O)c3cccc(-n4cnnc4)c3)C2)cc1 (stereo not given)
 : -13	-3.2	-1%	4	2	4	3.3%
CSc1cccc(NC(=O)CNC(=O)C2CCCCC2)c1
 : -19	-2.2	17%	-7	-1	-2	-1.5%
c1ccc(OCc2ccc(CCCN3CCOCC3)cc2)cc1
 : -19	-2.2	0%&-11%	11	-1	-3	-0.9%
COC(=O)c1cccc(NC(=S)Nc2ccc(Cl)c(Cl)c2)c1
 : -8	-1.2	3%	7	-8	0	?
COc1ccccc1CNc1cccc(C)n1
 : -22	-2.7	·	·	-3	-1	1.6%
COc1ccc(NS(=O)(=O)c2cccc(NC(=O)NCCCl)c2)cc1
 : 0	-1.8	11%	24	1	6	1.7%
CC1NC(=S)N(C2CCCCC2)C1=O (stereo not given)
 : -5	-6.7	7%	10	6	-18	3.6%
CCOC(=O)c1c(C)c(C(=O)N(C)C2CCCCC2)c(C)n1C
 : -18	-2.1	22%	-13	0	7	0.3%[38.3 µM]
Cc1ccc(C)c(Nc2nn3c(=O)c4ccc(C(=O)NCc5cccnc5)cc4nc3s2)c1
 : -5	2.4	3%	-3	-3	-6	?
CCn1c(=N)n(CCOc2ccc(OC)cc2)c2ccccc21
 : -8	-1.4	9%	?	-3	-1	-0.5%
CC1(c2ccc(Cl)cc2)NC(=O)N(CC(=O)NC2CCCCC2)C1=O (stereo not given)
 : -6	-4.0	·	·	-9	-1	0.7%
CCN1C(=O)c2cccc3c(S(=O)(=O)NCC4CCCO4)ccc1c23 (stereo not given)
 : -5	-0.9	0%	-3	4	-14	3.3%
CCOC(=O)c1ccccc1NC(=O)c1ccc(NS(C)(=O)=O)cc1
 : -1	-2.0	-3%	-18	3	5	-4.4%[38.3 µM]
O=C(c1ccccc1F)N1CCN(c2ccccc2F)CC1
 : -6	1.8	-11%	-12	3	-2	-1.7%
N#Cc1ccccc1OCC(=O)Nc1nc(-c2ccccn2)cs1
 : -24	0.7	·	·	-83*	?	-0.3%
CC(=O)N1CCN(c2ccc(NC(=O)c3cccc(OCc4ccccc4)c3)cc2)CC1
 : -12	-0.1	6%	-1	-1	5	18%
O=C1NC(=O)c2c(Br)c(Br)c(Br)c(Br)c21
 : -4	-1.3	·	·	-9	-12	-3.2%
O=C(COC(=O)c1ccccc1NCCO)NCCc1ccccc1
 : -22	-4.1	·	4	12	10	0.1%
O=C(Nc1ccccc1)Nc1nncs1
 : 9	1.1	11%	-3	6	-2	-1.6%
CCC12CN(C(=O)c3ccc([N+](=O)[O-])cc3)CC(CC)(CN(C(=O)c3ccc([N+](=O)[O-])cc3)C1)C2=O
 : 3	2.1	6%	5	0	·	-0.6%
O=S(=O)(Nc1ccccc1)c1ccc(-c2csnn2)cc1
 : 0	0.3	-2%	6	3	9	0.2%
CCN(C(=O)COC(=O)CCc1c[nH]c2ccccc12)c1c(N)n(Cc2ccccc2)c(=O)[nH]c1=O
 : 18	4.6	·	2	1	5	-4.1%
C1CN(CC2CCN(c3nc4nonc4nc3N3CCSCC3)CC2)CCO1
 : -4	4.6	-1%	0	-3	-4	-2.1%
COc1ccc(S(=O)(=O)N2CCN(C(=O)c3cccc(S(=O)(=O)N4CCCC4)c3)CC2)cc1
 : -23	-1.9	·	·	4	-5	0.6%
